gsp ag – gsp mutant agonism; 0.13% of 340,000 active; AID 624287; gsp mutant cells, cAMP HTRF, 30 min; control for the full effect not named in the record; Potency, µM (top dose mostly 76.9 µM), inactives show at the highest dose activation (cAMP increase), most hits filed as activators; active = well fitted activation curve with a large enough effect; inconclusive = small, poorly fitted or top-dose-only effect, or another doubt; inactive = no such curve, though single readings can be large or run the other way; cell line not stated here;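 further: phosphodiesterase inhibitor Ro 20-1724 added with compounds to block cAMP breakdown; potency means the concentration at half of the fitted maximal effect; nearly all actives have a fitted effect of over 60% in size; about a fifth of the inactives were tested at one dose only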
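Cells stably selected in G418 were plated at 2000/well, grown 16-24 hr, then given compounds in DMSO with the PDE inhibitor […] (300 uM solution added) for 30 min at 37C; cAMP was read by HTRF.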
gsp antagonist – antagonizes gsp, the McCune-Albright syndrome mutation | gsp-mutant cells, cAMP HTRF, 30 min; control for the full effect not named in the record | Potency, µM (top dose mostly 76.9 µM), for the others: top-dose activity change, negative = inhibition, most hits filed as inhibitors | 0.4% of 340,000 active | AID 624288; active = falling curve of any shape with a large fitted effect; inconclusive = falling curve, mostly with a smaller effect; inactive = flat or rising curve; cell line not stated here;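 further: intracellular cAMP measured with PDE inhibitor Ro 20-1724 present during compound exposure; potency means the concentration at half of the fitted maximal effect; on the % scale 0 is the no-effect control and ±100 the full control effect; nearly all actives have a fitted effect of over 65% in size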
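Cells, 2000/well, grown 16–24 h in DMEM 10% FBS with 0.5 mg/ml G418, then compounds plus […] (300 uM addition stock), 30 min at 37C. cAMP read by HTRF (cAMP-d2 and anti-cAMP antibody-K in lysis buffer) after 30 min RT.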
TRPV1 PAM – enhances activation of the human vanilloid receptor TRPV1. 0.02% of 320,000 active. TRPV1-expressing cells, Fluo-8 calcium influx, capsaicin EC20 potentiation; host cell line not named in the record; control for the full effect not named in the record. Q8NER1. potentiation, % at 8.33 µM; active means potentiation above 80%; inconclusive means 30% to 80%; inactive means below 30%; further: 0% is about no effect
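Fluo-8 calcium influx in TRPV1-expressing cells, kinetic read (ex 480/em 520 nm). Compound added and read 3 min for agonist activity, followed by capsaicin at EC20 final and 2 min further read for enhancement.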
Sfp PPTase inh – Sfp phosphopantetheinyl transferase inhibition | Biochemical Sfp PPTase activity, qHTS | Potency, µM, for the others: max response, negative = inhibition, most hits filed as inhibitors | 3.5% of 310,000 active; active means well fitted inhibition curve with a large enough effect; inconclusive means small, poorly fitted or top-dose-only effect, or another doubt; inactive means no such curve, though single readings can be large or run the other way;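 further: the enzyme is Sfp with the accession as filed and its product quenches rhodamine fluorescence; potency means the concentration at half of the fitted maximal effect; 0% = enzyme reaction without inhibitor and -100% = no enzyme wells; top concentration of the series not given in the record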
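Fluorescence-quenching assay: 15 nM Sfp-PPTase preincubated 15 min at room temperature with compound, then 5 uM rhodamine-CoA and 12.5 uM BHQ-2-labelled YbbR peptide added. Fluorescence (ex 525/em 598 nm) read at start and after 30 min; difference gives rate.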
ClpP mod – qHTS Assay for Activators of ClpP; purified B. subtilis ClpP, FRET peptide cleavage, 20 min; AID 651965, 2013; Potency, µM (highest dose often 57.5 µM), inactives show at the top dose activity change, negative = active; 1.9% of 340,000 active; active = well fitted falling curve with a large enough effect; inconclusive = small, poorly fitted or top-dose-only effect; inactive = no such curve, though single readings can be large or run the other way; further: potency means the concentration at half of the fitted maximal effect; the source files actives as falling curves though it sought activators and does not explain the sign; nearly all actives have a fitted effect of over 65% in size; many hits overshoot -100%
Target sequence (P80244 whole entry, looked up): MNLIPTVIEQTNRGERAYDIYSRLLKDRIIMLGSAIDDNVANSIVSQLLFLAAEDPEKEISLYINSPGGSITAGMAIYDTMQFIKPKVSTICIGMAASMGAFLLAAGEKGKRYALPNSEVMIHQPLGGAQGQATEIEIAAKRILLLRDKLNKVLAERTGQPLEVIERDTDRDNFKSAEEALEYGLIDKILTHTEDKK
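FRET quenching reversal measured ClpP activation: 10 microg/mL B. subtilis ClpP at pH 8 with the FRET-FV decapeptide, read at 430 nm after 320 nm excitation. The 20-min minus 0-min signal was scaled between DMSO/no-enzyme wells and ADEP (5.8 microM final).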
TRPML1 blocker – human mucolipin-1 channel inhibition; AID 624415; TRPML1-inducible cells, Ca2+ dye fluorescence, FDSS; active compounds read low; inhibition of EC80 agonist-evoked calcium signal; 0.02% of 390,000 active; activity change, negative = inhibition, % (test concentration not listed); Q9GZU1; in the data active means activity change below about -50%; inconclusive means about -30% to -50%; inactive means above about -30%;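 further: stimulus is agonist 54-4 at its EC80 concentration; on the % scale 0 is the no-effect control and ±100 the full control effect; compound concentration not given in the record; the text of the record puts the active cut at -80%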
Target sequence (Q9GZU1 whole entry, looked up): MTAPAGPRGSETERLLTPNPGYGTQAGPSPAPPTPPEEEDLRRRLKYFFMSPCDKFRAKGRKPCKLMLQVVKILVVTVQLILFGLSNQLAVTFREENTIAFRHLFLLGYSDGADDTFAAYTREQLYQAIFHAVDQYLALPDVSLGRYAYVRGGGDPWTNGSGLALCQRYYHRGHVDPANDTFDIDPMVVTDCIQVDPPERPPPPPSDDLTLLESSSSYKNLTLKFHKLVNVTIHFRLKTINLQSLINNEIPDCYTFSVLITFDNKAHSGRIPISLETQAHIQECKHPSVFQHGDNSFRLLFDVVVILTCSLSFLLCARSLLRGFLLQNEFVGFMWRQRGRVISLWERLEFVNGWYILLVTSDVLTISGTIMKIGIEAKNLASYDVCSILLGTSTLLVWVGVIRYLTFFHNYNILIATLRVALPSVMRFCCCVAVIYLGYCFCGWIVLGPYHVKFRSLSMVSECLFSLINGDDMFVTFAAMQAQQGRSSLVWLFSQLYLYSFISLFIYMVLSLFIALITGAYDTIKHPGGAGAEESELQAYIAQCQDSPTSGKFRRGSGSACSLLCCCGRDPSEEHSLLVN
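Tet-induced TRPML1-DL cells loaded with Ca8 no-wash calcium dye were read kinetically on FDSS. Compound addition was followed by EC80 agonist 54-4 (4 uM final); inhibition was read over 110 s.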
Menin MLL FP FL – menin-MLL binding inhibition, fluorescein peptide. FP activity change, % at 61.4 µM. 290,000 tested, under 10 active. Fluorescence polarization, fluorescein-MLL peptide displacement from menin; inconclusive = falling polarisation curve, or a change in total fluorescence; inactive = total fluorescence flat and polarisation flat or rising; no compound was filed as active; the % refers to the polarisation; negative = inhibition;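 further: % of control where 0% means no effect; inhibitors lower the polarisation; unlabelled MLL peptide was the positive control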
An asterisk follows results filed as active; & = joins results of further samples; [ ] = dose if it differs, or a comment.

O=c1cc(-c2ccccc2)nc2n1Cc1ccccc1-2 was read as gsp ag 11%, gsp antagonist 8%, TRPV1 PAM -4, Sfp PPTase inh 6%, ClpP mod -1.4%, TRPML1 blocker 6 and Menin MLL FP FL 0.7.
`Fc1ccccc1CNCCC(Cc1ccccc1)c1ccc2c(c1)OCO2` (configuration not stated) gave gsp ag 10%[15.4 µM], gsp antagonist 2%, TRPV1 PAM -17, Sfp PPTase inh -3%, ClpP mod 0.4%, TRPML1 blocker 2 and Menin MLL FP FL 4.6.
`Cc1cc(C)cc(C(=O)NC(CC(N)=O)c2ccc(NC3CCCCCCCCCCC3)c([N+](=O)[O-])c2)c1` (configuration not stated) gave gsp ag -1%, gsp antagonist 5%, TRPV1 PAM -9, Sfp PPTase inh -9%, ClpP mod -1.9%, TRPML1 blocker 16 and Menin MLL FP FL -4.5.
For O=C(CSc1ncnc2scc(-c3ccccc3)c12)NCc1ccc2c(c1)OCO2 the results were gsp ag inconclusive, gsp antagonist -12%, TRPV1 PAM -7, Sfp PPTase inh -1%, ClpP mod -3.7%, TRPML1 blocker 11 and Menin MLL FP FL 8.8.
`Cc1noc(N)c1C(=O)Nc1ccc(C(C)(C)C)cc1` gave gsp ag 0%, gsp antagonist 0%, TRPV1 PAM -14, Sfp PPTase inh -2%, ClpP mod 1.5%, TRPML1 blocker -16 and Menin MLL FP FL 0.1.
`CCCc1c(C)nc(N2CCN(c3ccc(F)cc3)CC2)[nH]c1=O` gave gsp ag -34%[inhibitor], gsp antagonist -5%, TRPV1 PAM 8, Sfp PPTase inh 13%, ClpP mod -3.3% and Menin MLL FP FL -1.7.
CCOC(=O)C1CCN(C(=O)Cc2c(C(=O)O)[nH]c3ccccc23)CC1 was read as gsp ag -43%[inhibitor], gsp antagonist 1%, TRPV1 PAM -3, Sfp PPTase inh 4%, ClpP mod inconclusive, TRPML1 blocker 3 and Menin MLL FP FL -2.9.
CC(=O)N1CCN(C(=O)c2cccc(S(=O)(=O)Nc3c(C)n(C)n(-c4ccccc4)c3=O)c2)CC1 was read as gsp ag 0%, gsp antagonist 10%, TRPV1 PAM -17, ClpP mod -3.7% and TRPML1 blocker -4.
`COc1ccc(NC(=O)CN(C)CC(=O)Nc2ccc3c(c2)CCC3)cc1` gave gsp ag -1%, gsp antagonist -6%, TRPV1 PAM -18, Sfp PPTase inh 17%, TRPML1 blocker 5 and Menin MLL FP FL 3.7.
Screening O=C(CCc1nnc(CCc2c[nH]c3ccccc23)o1)NC1CCC1 returned gsp ag -21%, gsp antagonist 5%, TRPV1 PAM 0, Sfp PPTase inh -5%, ClpP mod -0.2% and Menin MLL FP FL -0.7.
Screening N/C(=N\OC(=O)Nc1ccc(Cl)cc1)c1ncc(C(F)(F)F)cc1Cl returned gsp ag -60%[inhibitor], gsp antagonist 6%, TRPV1 PAM 0, Sfp PPTase inh 19%, ClpP mod -1.1%, TRPML1 blocker -5 and Menin MLL FP FL 1.7.
For COc1ccccc1NS(=O)(=O)c1cccc(C(=O)NCC2(N3CCCCC3)CCCCC2)c1 the results were gsp ag -1%, gsp antagonist -6%, ClpP mod 0.4% and TRPML1 blocker 0.
Screening CC(N1CCOC1=O)S(=O)(=O)c1ccccc1 (configuration not stated) returned gsp ag 11%, gsp antagonist 5%, TRPV1 PAM -2, Sfp PPTase inh 63µM*, ClpP mod -1.7%, TRPML1 blocker -5 and Menin MLL FP FL 0.1.
CCn1cc(C(=O)NCCc2ccccc2)c(=O)c2cc(S(=O)(=O)N3CCCC3)ccc21 was read as gsp ag 6%, gsp antagonist -19%, TRPV1 PAM 0, Sfp PPTase inh -17%, TRPML1 blocker 19 and Menin MLL FP FL -0.6.
`O=C(O)Cc1csc(NC(=O)c2ccco2)n1` gave gsp ag -1%, gsp antagonist -1%[15.4 µM], TRPV1 PAM 3, Sfp PPTase inh inconclusive, ClpP mod -2.1%, TRPML1 blocker -5 and Menin MLL FP FL 3.5.
`CC(C)C1NC2(C(=O)c3ccccc3C2=O)C2C(=O)N(c3ccc(F)cc3)C(=O)C12` (configuration not stated) gave gsp ag 6%, gsp antagonist 3%, TRPV1 PAM 3, Sfp PPTase inh 25µM*, ClpP mod 0.8%, TRPML1 blocker -21 and Menin MLL FP FL 4.2.
O=C(Nc1ccc(Cl)cc1)c1ccc2c(c1)S(=O)(=O)c1ccccc1C2=O was read as gsp ag inconclusive, gsp antagonist 6%, ClpP mod 0.5% and TRPML1 blocker 9.
COc1cccc2nc3cc(C)c(C)cc3nc12 was read as gsp ag -13%, gsp antagonist -14%, TRPV1 PAM -22, Sfp PPTase inh inconclusive, ClpP mod -1.5%, TRPML1 blocker 13 and Menin MLL FP FL -11.
COc1cccc(C2=NN(C(=O)c3ccco3)C(O)(C(F)(F)F)C2)c1 (configuration not stated) was read as gsp ag -5%[15.4 µM], gsp antagonist 5%, TRPV1 PAM 1, Sfp PPTase inh -24%, TRPML1 blocker -27 and Menin MLL FP FL -0.6.
Screening CN(Cc1ccccc1)/C(=N/O)c1cccc(Cl)c1 returned gsp ag -21%, gsp antagonist 4%, TRPV1 PAM 25, Sfp PPTase inh 8%, ClpP mod -0.2% and Menin MLL FP FL 0.3.
`CC(C)OCCCNC(=O)C1CC(=O)N(CCc2ccccc2)C1` (configuration not stated) gave gsp ag -12%, gsp antagonist -2%, TRPV1 PAM 15, Sfp PPTase inh 8%, TRPML1 blocker 1 and Menin MLL FP FL -16.
O=C(CSc1ccc(Cl)cc1)Nc1cccc(-c2nc3ncccc3o2)c1 was read as gsp ag -3%, gsp antagonist 14%, TRPV1 PAM 10, Sfp PPTase inh -11%, ClpP mod 38%, TRPML1 blocker 3 and Menin MLL FP FL -1.5.
CCOc1ccc(/C=C/C(=O)OCC(=O)Nc2cccc(S(=O)(=O)N3CCCC3)c2)cc1 was read as gsp ag -42%[inhibitor], gsp antagonist -15%, TRPV1 PAM 12, ClpP mod -23% and TRPML1 blocker 16.
For Nc1c(-c2ccc(Cl)cc2)nnn1-c1ccccc1 the results were gsp ag 5%, gsp antagonist 6%, TRPV1 PAM -22, Sfp PPTase inh 7%, ClpP mod 6.0%, TRPML1 blocker -12 and Menin MLL FP FL 4.4.
Screening COC(=O)CC1C(=O)NCCN1C(=O)c1ccc(S(=O)(=O)N2CCOCC2)cc1 (configuration not stated) returned gsp ag -3%[15.4 µM], gsp antagonist 16%, TRPV1 PAM -9, Sfp PPTase inh 14%, ClpP mod 0.6%, TRPML1 blocker 11 and Menin MLL FP FL -8.4.
O=C(CNC(=S)NC(=O)c1ccc(F)cc1)c1ccccc1 was read as gsp ag -6%[15.4 µM], gsp antagonist 26%, TRPV1 PAM 12, Sfp PPTase inh -2%, ClpP mod -7.5%, TRPML1 blocker 9 and Menin MLL FP FL 8.0.
Screening CCOC(=O)c1ccc(-n2c(CN3CCC(O)CC3)nc3ccc([N+](=O)[O-])cc3c2=O)cc1 returned gsp ag -27%, gsp antagonist -28%, TRPV1 PAM 2, Sfp PPTase inh 18µM*, ClpP mod -1.2%, TRPML1 blocker -1 and Menin MLL FP FL 0.1.
Screening COc1cccc(CNc2ccc(C(=O)O)cc2)c1OCc1ccccc1 returned gsp ag inconclusive, gsp antagonist -2%, TRPV1 PAM -4, Sfp PPTase inh 3%, ClpP mod 0.4%, TRPML1 blocker 27 and Menin MLL FP FL 2.1.
Screening COc1ccc(/C=N/NC(=O)c2ccc(N(C)S(=O)(=O)c3ccccc3)cc2)c(OC)c1 returned gsp ag -66%[inhibitor], gsp antagonist -9%, TRPV1 PAM 30, Sfp PPTase inh 19%, ClpP mod inconclusive, TRPML1 blocker -6 and Menin MLL FP FL -1.3.
Screening C=CCN(c1ccccc1)S(=O)(=O)c1cccc(C(=O)NCC(c2ccc(OC)cc2)N2CCCCC2)c1 (configuration not stated) returned gsp ag 14%, gsp antagonist -5%, TRPV1 PAM 6, ClpP mod -1.4% and TRPML1 blocker -12.
For Cc1cccc(NC(=O)CSc2nnc(CN3CCOCC3)n2C)c1C the results were gsp ag 12%, gsp antagonist 5%, TRPV1 PAM 5, Sfp PPTase inh 17%, ClpP mod 1.5%, TRPML1 blocker 12 and Menin MLL FP FL -1.5.
For Cc1ccc(C(=O)NCCCNC(=O)c2ccc(C)nc2)cc1 the results were gsp ag 5%[15.4 µM], gsp antagonist 3%, TRPV1 PAM 3, Sfp PPTase inh 21%, TRPML1 blocker 0 and Menin MLL FP FL -1.3.
`Cc1ccc(C(=O)CSc2ccccn2)cc1` gave gsp ag 1%, gsp antagonist -18%, TRPV1 PAM -9, Sfp PPTase inh 50µM*, ClpP mod -0.7%, TRPML1 blocker -14 and Menin MLL FP FL 0.3.
Screening CCN(CC)CCCn1c2c(c(SCC(=O)Nc3nc4ccccc4s3)nc1=O)CCC2 returned gsp ag 14%, gsp antagonist 3%, TRPV1 PAM 0, ClpP mod -5.6% and TRPML1 blocker 31.
`COc1ccc(Nc2c(-c3ccco3)nc3cccc(C)n23)cc1` gave gsp ag 3%, gsp antagonist -7%, TRPV1 PAM -7, Sfp PPTase inh -6%, ClpP mod -25%&4.1%, TRPML1 blocker 7&-13 and Menin MLL FP FL -0.7.
For CC1(C)C2CCC1(CS(=O)(=O)NC1CCCC1)C(=O)C2 (configuration not stated) the results were gsp ag -8%, gsp antagonist 1%, TRPV1 PAM -9, Sfp PPTase inh 9%, ClpP mod -0.5%, TRPML1 blocker 0 and Menin MLL FP FL -3.4.
For CC(=O)Nc1ccc(C(=O)Nc2nc(-c3ccccn3)cs2)cc1 the results were gsp ag 11%, gsp antagonist -8%, TRPV1 PAM 7, Sfp PPTase inh 16µM*, ClpP mod -5.2%, TRPML1 blocker -1 and Menin MLL FP FL 0.3.

2 records drawn at random from those above:
Screening COC(=O)CC1C(=O)NCCN1C(=O)c1ccc(S(=O)(=O)N2CCOCC2)cc1 (configuration not stated) returned gsp ag -3%[15.4 µM], gsp antagonist 16%, TRPV1 PAM -9, Sfp PPTase inh 14%, ClpP mod 0.6%, TRPML1 blocker 11 and Menin MLL FP FL -8.4.
`O=C(O)Cc1csc(NC(=O)c2ccco2)n1` gave gsp ag -1%, gsp antagonist -1%[15.4 µM], TRPV1 PAM 3, Sfp PPTase inh inconclusive, ClpP mod -2.1%, TRPML1 blocker -5 and Menin MLL FP FL 3.5.

Screening results as filed in PubChem.
